GIV Gai3 FP – blocks GIV peptide binding to rat Galpha-i3; P08753; Galpha-i3/FITC-GIV peptide fluorescence polarization, 90 min; hits give low values; scaled: aluminum fluoride 0%, vehicle 100%; percent of control (FP), % (test concentration not listed); hit rate 0.42% among 210,000;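 active = replicate mean at 85% of control or lower, very high polarization wells dropped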;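 note: wells of about 15 µL received 100 nL stock; the first replicate is given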
Target sequence (P08753 whole entry, looked up): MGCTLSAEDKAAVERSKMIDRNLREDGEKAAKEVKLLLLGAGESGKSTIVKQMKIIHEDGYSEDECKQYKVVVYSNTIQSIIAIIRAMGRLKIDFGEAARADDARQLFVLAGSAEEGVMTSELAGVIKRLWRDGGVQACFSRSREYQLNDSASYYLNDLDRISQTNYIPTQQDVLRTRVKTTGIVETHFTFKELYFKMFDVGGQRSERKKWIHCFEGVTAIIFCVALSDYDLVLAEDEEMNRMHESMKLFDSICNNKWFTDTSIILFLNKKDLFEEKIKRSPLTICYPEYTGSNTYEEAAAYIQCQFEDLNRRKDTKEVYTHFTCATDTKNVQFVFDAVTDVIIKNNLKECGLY
The depositor's hits bear a star. These rows are one share of the data; the hit share may differ from the screen's.

GIV Gai3 FP,smiles
103,Cc1nn(-c2ccccc2)c2sc(C(=O)Nc3ccc(F)cc3Cl)cc12
99,COc1cc(C2CC(=O)Nc3c2ccc2ccccc32)ccc1OCc1ccccc1 (configuration not stated)
231,CCOC(=O)C1=C(C)N=c2s/c(=C/c3cc(Br)c(O)c(OC)c3)c(=O)n2C1c1cc(OC)ccc1OC (configuration not stated)
95,COc1ccc(NC(=O)NC(C(=O)N2CCc3ccccc32)C(C)C)cc1 (configuration not stated)
107,CN(C)S(=O)(=O)c1ccc(-c2nnc(C(=O)NC3CC3)o2)cc1
109,C=CCN1C(=O)C2(Nc3ccccc3C(=O)N2c2ccccc2)c2ccccc21 (configuration not stated)
112,O=C(/C=C/c1ccc(Br)cc1)C12CC3CC(CC(C3)C1)C2
100,COc1ccc(C2CC(=O)C3=C(C2)Nc2ccccc2NC3c2ccccc2OCc2ccccc2)cc1OC (configuration not stated)
106,O=C1C(=O)N(c2cccc(C(F)(F)F)c2)C(c2ccccc2F)/C1=C(\O)c1ccccc1 (configuration not stated)
100,CCOc1ccccc1N/C(SCc1c(F)cccc1Cl)=C(/C#N)C(=O)NCc1ccccc1
101,CCOC(=O)c1sc2nc(CC(=O)OC)nc(NCc3ccc(Cl)cc3)c2c1C
100,Cc1cc(C2CCCN2C(=O)c2ccc(F)cc2)on1 (configuration not stated)
106,CCc1cc(-c2csc(S(=O)(=O)Nc3cc(C)cc(C)c3)c2)on1
115,CCCCOc1ccc(C2C(N3C(=O)c4ccccc4C3=O)C(=O)N2c2ccc(OC)c(Cl)c2)cc1 (configuration not stated)
108,Cn1ccc2c(cc(C(=O)N3CCCC3)n2C)c1=O
102,CCOc1ccc(NC(=O)Cn2nc3c4sc(N(C)C)nc4ncn3c2=O)cc1
108,N#Cc1c(NC(=O)COc2ccc(Cl)cc2)oc(-c2ccccc2)c1-c1ccccc1
102,COc1ccc(-c2nc(-c3ccc4c(c3)oc(=O)n4C)no2)c(OC)c1
107,Cn1c(=O)n(CC(=O)N2CCCC2)c(=O)c2cc(S(=O)(=O)Nc3ccc(Cl)cc3)ccc21
100,CCOC(=O)C1=C(O)/C(=C/c2ccc(F)cc2)SC1=Nc1ccc([N+](=O)[O-])cc1
111,Cc1ccc(-n2cc(-c3ccccc3)c3c(NCCCN(C)C)ncnc32)cc1Cl
100,COCCNc1nc(Nc2ccc(C)cc2)c2cnn(-c3ccccc3)c2n1
98,Cc1ccc(Cn2nc3c(S(=O)(=O)N4CCOCC4)cccn3c2=O)c(C)c1
98,CC1=C(C(=O)Nc2cccc(Cl)c2)C(c2ccc(O)cc2)NC(=O)N1 (configuration not stated)
109,O=C(Nc1ccc(Br)cc1)c1cc2c3c(c1)C1C=CCC1CN3CC1CC=CC21 (configuration not stated)
110,COCCCNC(=O)N1CCC2(C1)C(=O)Nc1ccccc12 (configuration not stated)
109,CCOC(=O)CC(=O)CSc1nc2c(sc(=S)n2Cc2ccco2)c(=O)n1-c1ccc(F)cc1
103,CCN(CC)CCn1c(=S)[nH]c2cc(C(=O)NCCc3ccc(S(N)(=O)=O)cc3)ccc2c1=O
107,CC(=O)Nc1nc2c(c3c1c(=O)oc1ccccc13)CC(C(C)(C)C)CC2 (configuration not stated)
100,CN1C(=O)c2ccccc2Sc2cc(NC(=O)c3cnccn3)ccc21
115,CCOC(=O)C1=NN(c2ccc(Br)cc2)C2C(=O)N(c3ccc(Cl)cc3)C(=O)C12 (configuration not stated)
101,O=C(Nc1ccccc1C(F)(F)F)c1ccc(F)c(S(=O)(=O)N2CCN(c3ccccc3F)CC2)c1
99,CCOc1ccc(NC(=O)NC2COc3ccccc3C2)cc1 (configuration not stated)
103,O=C(CSc1nc2ccccc2c(=O)n1CCCC(=O)N1CCN(c2ccccc2)CC1)NCc1ccco1
107,Cc1ccccc1Nc1cc(N2CCCCC2)c2noc3c2c1C(=O)c1ccccc1-3
102,CC(C)(C)c1csc(-c2csc(S(=O)(=O)NCc3ccccc3Cl)c2)n1
101,OCCNCC(O)Cn1c2ccccc2c2ccccc21 (configuration not stated)
105,Cc1cc2c(cc1S(=O)(=O)N(C)CC(=O)NC1CC1)OC(C)C(=O)N2 (configuration not stated)
109,CCOc1ccc(N2C(=O)CS(=O)(=O)C2c2cccc(Br)c2)cc1 (configuration not stated)
107,C=CCn1c(=O)c(=O)n(CCC(=O)NCCN2CCCC2)c2ccccc21
103,CCCNC(=O)c1ccc2c(=O)n(CC3CCCO3)c(SCc3ccc(Cl)cc3)nc2c1 (configuration not stated)
127,CC1C(c2ccc(Cl)cc2)NC(c2ccc(Cl)cc2)C(C)C1(C)O (configuration not stated)
98,CCc1cc(Sc2ccc(NC(=O)c3ccccc3Cl)cc2)n2ncnc2n1
98,O=S(=O)(NC1CCCC1)c1cc(-c2noc(C3CCC3)n2)cs1
112,Cc1ccccc1C(=O)Nc1cc2c3c(c1)C1CCCC1CN3CC1CCCC21 (configuration not stated)
105,O=C(Nc1cc(F)ccc1F)Nc1c(-c2cccnc2)[nH]c2ccccc12
101,CCOC(=O)c1[nH]c(C)c(CN(Cc2ccc(C)cc2)C(=O)Nc2ccc(OC)cc2)c1C
96,COc1cccc(C2CC(=O)Nc3c2cnn3-c2nc3ccccc3s2)c1OCc1ccccc1 (configuration not stated)
101,Cc1c(C(=O)N2c3ccc(F)cc3CCC2C)sc2ncn(Cc3cccc(F)c3)c(=O)c12 (configuration not stated)
108,Nc1nc(CSCc2ccccc2)nc(N2CCOCC2)n1
98,CC(=O)N1CCCN(C(=O)C(C)C)CC1
150,CCN1CCc2c(sc(NC(=O)c3ccc(Cl)cc3)c2C(=O)OC)C1
114,CCN(CC)c1nc(C)nc2sc(C(=O)N3CCC(C)CC3)c(C)c12
103,CCOC(=O)c1cnc2c(ccc3ccccc32)c1Nc1cccc(C)c1
104,O=C(CN1C(=O)C2CCCN2C(=O)c2cc(F)ccc21)NCCCN1CCCC1 (configuration not stated)
100,CCOc1cccc2c1OC(c1cccc(F)c1)N1N=C(c3cccnc3)CC21 (configuration not stated)
99,Cc1ccc(Nc2c(C(=O)NCc3ccc4c(c3)OCO4)cnc3c2c(C)nn3C)cc1
100,Cn1cccc1CN1CCCC(C(N)=O)C1 (configuration not stated)
102,O=C1CSC(c2cn(-c3ccccc3)nc2-c2cc3ccccc3oc2=O)N1Cc1ccccc1 (configuration not stated)
105,CCn1c(S(=O)(=O)CCC(=O)O)nc2c(=O)n(C)c(=O)n(C)c21

3 compounds from above, sorted by molar mass, falling.
GIV Gai3 FP,smiles
111,Cc1ccc(-n2cc(-c3ccccc3)c3c(NCCCN(C)C)ncnc32)cc1Cl
109,C=CCN1C(=O)C2(Nc3ccccc3C(=O)N2c2ccccc2)c2ccccc21 (configuration not stated)
100,Cc1cc(C2CCCN2C(=O)c2ccc(F)cc2)on1 (configuration not stated)

(more compounds)
GIV Gai3 FP,smiles
102,O=C(Nc1ccc2c(c1)OCCO2)N1CCCN(c2nc3cc(Br)ccc3n3cccc23)CC1
116,Cc1ccc2c(c1)c(-c1ccccc1)c(-c1ccccc1)n2CCC(=O)O
110,O=C(Nc1ccc2oc(-c3ccncc3)nc2c1)c1cccc(OCc2ccccc2)c1
-65*,C=CCNC(=O)C1CCCN(C(=O)c2cccc(NS(=O)(=O)c3ccc(C(C)C)cc3)c2)C1 (configuration not stated)
107,COc1cc(/C=C2/NC(=O)N(Cc3ccc(Br)cc3)C2=O)cc2c1OCO2
103,CCN(CC)C(=O)c1cc2c(s1)CCC(C(=O)NC1CCN(C)CC1)C2 (configuration not stated)
104,CCCc1c2c(C)c(C(=O)OCC)nc-2cc2n1CC(C)=C2C
111,Cc1cc(C(=O)OCCN(C2=NS(=O)(=O)c3ccccc32)c2ccccc2)ccc1[N+](=O)[O-]
105,O=C(/C=C/c1ccccc1)Nc1ccc2nc(SCC(=O)NCC3CCCO3)sc2c1 (configuration not stated)
107,COc1ccccc1NC(=O)CSc1nc2ccccc2c(=O)n1CCCC(=O)NCCc1ccc(OC)c(OC)c1
98,CCOC(=O)Cn1nc2ccc(S(=O)(=O)N3CCSCC3)cn2c1=O
105,COc1ccc(-n2c(C=C3C(=O)N(C)c4ccc(Br)cc43)nc3ccccc3c2=O)cc1
101,CN(C)c1nc2ncn3c(=O)n(CC(=O)Nc4ccc(F)cc4F)nc3c2s1
194,CCOC(=O)C1=C(C)N=c2s/c(=C/c3cc(OC)c(O)cc3Br)c(=O)n2C1c1ccc(OC)c(OC)c1 (configuration not stated)
-3.2*,CC(C)Oc1ccc(C(=O)Nc2sc3c(c2-c2nc4ccccc4s2)CCN(C)C3)cc1
106,Cc1cccc(NC(=O)c2ccc3nnc(SCC(=O)Nc4ccccc4Cl)n3c2)c1
109,CCCCCCCCCCCCCCCCOC1OC(COC(C)=O)C(OC(C)=O)C(OC(C)=O)C1NC(C)=O (configuration not stated)
108,COC(=O)CN1C(c2ccccc2Br)=Nc2ccc(Br)cc2C1c1ccccc1 (configuration not stated)
102,Cc1cccc(C(=O)N2c3ccccc3N3C(c4c(C)cc(C)cc4C)=NON23)c1
100,Cc1cc(-c2ccccc2)nc(SCC(=O)O)n1
103,CC1(C(=O)NCc2cccc(F)c2)CCCN(C(=O)CSc2ccccc2)C1 (configuration not stated)
112,Cc1ccc(Nc2cc(N(C)C)c3nonc3c2[N+](=O)[O-])c(C)c1
103,CCCCCCCC(=O)NC1C(OC(C)=O)OC(COC(C)=O)C(OC(C)=O)C1OC(C)=O (configuration not stated)
108,O=c1[nH]cnc2nc3n(c12)CCS3
101,O=C(NCc1ccc(F)cc1)c1ccc(-c2ccc(S(=O)(=O)NCc3ccccc3)cc2)cc1
106,COC(=O)c1ccccc1NC(=O)c1sc2nc(C)nc(N3CCCCC3C)c2c1C (configuration not stated)
99,Cc1c(C(=O)Nc2ccc3c(c2)OCO3)sc2ncnc(N3CCN(c4ccccc4)CC3)c12
99,CCCn1c(CCc2ccc(NS(=O)(=O)c3cccc4nsnc34)cc2)nc2ccccc21
100,Cc1cc(C)n(-c2nc3c(c(=O)n2CC(=O)N2CCc4ccccc42)CCCC3)n1
106,O=S(=O)(Nc1ccc(Cn2cncn2)cc1)c1ccc2c(c1)CCC2
103,Cc1cc(N(C)C)n2nccc2n1
104,CCOC(=O)C1CCCN(c2cc(NCCCO)c([N+](=O)[O-])c3nonc23)C1 (configuration not stated)
118,Nc1c(C(=O)c2ccccc2)sc2nc(C3CC3)cc(-c3ccco3)c12
105,Cc1ccc(N=C(NOCc2ccc(Cl)cc2Cl)c2nonc2N)c(C)c1
110,CCCC1=C(C(=O)OCC)C(c2cccc3ccccc23)C(C#N)=C(N)O1 (configuration not stated)
107,CC1(C)CC(=O)C2=C(C1)N(c1ccccc1)C(=O)CC2c1ccc(O)cc1 (configuration not stated)
102,COc1ccc(N2C(C)=NS(=O)(=O)c3cccnc32)cc1OC
109,NC(=O)C1CCN(C(=O)c2ccc3c(=O)n(C4CCCCC4)c(SCc4cccc(F)c4)nc3c2)CC1
108,CCOc1ccc(C2C(N3C(=O)c4c(Cl)c(Cl)c(Cl)c(Cl)c4C3=O)C(=O)N2c2ccc(Br)cc2)cc1 (configuration not stated)
102,O=S(=O)(c1ccc(F)c(F)c1)N(Cc1ccco1)CC1CCCO1 (configuration not stated)
120,COc1cc(C(c2c(C)[nH]n(-c3ccccc3)c2=O)c2c(C)[nH]n(-c3ccccc3)c2=O)ccc1O
104,CC(C)CCNC(=O)CSc1nnc2n(CCC(=O)NC(C)C)c(=O)c3cc(Cl)ccc3n12
114,COc1ccc2cc(C(=O)Nc3ccc(Cl)cc3)c(=Nc3ccc(C(=O)O)cc3)oc2c1
105,Cn1c(=O)c(N2CCN(C(=O)C3CCCO3)CC2)nc2ccccc21 (configuration not stated)
110,CCOc1ccc2nc(-c3ccccc3)[nH]c2c1
111,COCC1=C(C(=O)OC)C(c2ccccc2Br)C(C#N)=C(N)O1 (configuration not stated)
102,Cc1noc(-c2ccc(S(=O)(=O)N3CCC(N4CCCCC4)CC3)s2)c1C
95,Cc1[nH]nc(-c2c(C)sc(C)c2S(=O)(=O)NCCC2=CCCCC2)c1C
104,COC(=O)c1ccc(NC(=O)C23CC4CCC2(C)C4(C)CO3)cc1 (configuration not stated)

Grouped by structure: those above containing bromine
GIV Gai3 FP,smiles
231,CCOC(=O)C1=C(C)N=c2s/c(=C/c3cc(Br)c(O)c(OC)c3)c(=O)n2C1c1cc(OC)ccc1OC (configuration not stated)
112,O=C(/C=C/c1ccc(Br)cc1)C12CC3CC(CC(C3)C1)C2
109,O=C(Nc1ccc(Br)cc1)c1cc2c3c(c1)C1C=CCC1CN3CC1CC=CC21 (configuration not stated)
115,CCOC(=O)C1=NN(c2ccc(Br)cc2)C2C(=O)N(c3ccc(Cl)cc3)C(=O)C12 (configuration not stated)
109,CCOc1ccc(N2C(=O)CS(=O)(=O)C2c2cccc(Br)c2)cc1 (configuration not stated)
102,O=C(Nc1ccc2c(c1)OCCO2)N1CCCN(c2nc3cc(Br)ccc3n3cccc23)CC1
107,COc1cc(/C=C2/NC(=O)N(Cc3ccc(Br)cc3)C2=O)cc2c1OCO2
105,COc1ccc(-n2c(C=C3C(=O)N(C)c4ccc(Br)cc43)nc3ccccc3c2=O)cc1
194,CCOC(=O)C1=C(C)N=c2s/c(=C/c3cc(OC)c(O)cc3Br)c(=O)n2C1c1ccc(OC)c(OC)c1 (configuration not stated)
108,COC(=O)CN1C(c2ccccc2Br)=Nc2ccc(Br)cc2C1c1ccccc1 (configuration not stated)
108,CCOc1ccc(C2C(N3C(=O)c4c(Cl)c(Cl)c(Cl)c(Cl)c4C3=O)C(=O)N2c2ccc(Br)cc2)cc1 (configuration not stated)
111,COCC1=C(C(=O)OC)C(c2ccccc2Br)C(C#N)=C(N)O1 (configuration not stated)
